AID923: qHTS Assay for Allosteric/Competitive Inhibitors of Caspase-1: Spectroscopic Profiling in AFC Spectral Region; compound fluorescence, AFC spectral region (405/520 nm); almost no hit is shown here; Potency, µM (highest dose often 57.5 µM), for the others: at the highest dose fluorescence increase, usual class: activators; 75,000 tested, 1.1% active; AID 923, 2007; active means well fitted activation curve with a large enough effect; inconclusive means small, poorly fitted or top-dose-only effect;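 further: potency means the concentration at half of the fitted maximal effect; 0% is about no effect; scaled to a free AFC standard on each plate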
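Compound autofluorescence profiled at 405 nm ex/520 nm em during kinetic caspase 1 run (50 nM enzyme, 5 uM Ac-WEHD-AFC, HEPES pH 7.5, 10 mM DTT). Titration up to 57 uM; baseline from regression intercept, normalized to AFC standard curve.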
Resorufin fluor: resorufin region autofluorescence; Compound fluorescence, resorufin region 547/598 nm, buffer; hits give high values; max dye-equivalent concentration, M; 59,000 tested, 0.04% active; active = above 10 nM dye equivalent; inconclusive = 1 to 10 nM; inactive = 1 nM or less; a few of its hits are not listed in these tables; further: highest value over a series up to 38 µM
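Compounds in 100 mM Tris buffer, pH 8.0, incubated 15 min at room temperature, then read with 547 nm excitation and 598 nm emission filters. Fluorescence was converted to dye-equivalent concentration using an on-plate six-point resorufin standard curve.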
TSHR ag: agonists of human thyroid stimulating hormone receptor | HEK293-CNG-TSHR cells (CNG channel as cAMP sensor), membrane potential dye, cAMP | Potency, µM (highest dose often 57.1 µM), for the others: at the top dose activation, hits mostly activators | 73,000 tested, 0.48% active | P16473; active = well fitted activation curve of enough size with the parental cells flat; inconclusive = any curve in the parental cells; inactive = parental cells flat and receptor cells flat or falling; further: potency means the concentration at half of the fitted maximal effect; % of control where 0% means no effect; weak receptor curves with flat parental cells got no call and are not listed
Target sequence (P16473 whole entry, looked up): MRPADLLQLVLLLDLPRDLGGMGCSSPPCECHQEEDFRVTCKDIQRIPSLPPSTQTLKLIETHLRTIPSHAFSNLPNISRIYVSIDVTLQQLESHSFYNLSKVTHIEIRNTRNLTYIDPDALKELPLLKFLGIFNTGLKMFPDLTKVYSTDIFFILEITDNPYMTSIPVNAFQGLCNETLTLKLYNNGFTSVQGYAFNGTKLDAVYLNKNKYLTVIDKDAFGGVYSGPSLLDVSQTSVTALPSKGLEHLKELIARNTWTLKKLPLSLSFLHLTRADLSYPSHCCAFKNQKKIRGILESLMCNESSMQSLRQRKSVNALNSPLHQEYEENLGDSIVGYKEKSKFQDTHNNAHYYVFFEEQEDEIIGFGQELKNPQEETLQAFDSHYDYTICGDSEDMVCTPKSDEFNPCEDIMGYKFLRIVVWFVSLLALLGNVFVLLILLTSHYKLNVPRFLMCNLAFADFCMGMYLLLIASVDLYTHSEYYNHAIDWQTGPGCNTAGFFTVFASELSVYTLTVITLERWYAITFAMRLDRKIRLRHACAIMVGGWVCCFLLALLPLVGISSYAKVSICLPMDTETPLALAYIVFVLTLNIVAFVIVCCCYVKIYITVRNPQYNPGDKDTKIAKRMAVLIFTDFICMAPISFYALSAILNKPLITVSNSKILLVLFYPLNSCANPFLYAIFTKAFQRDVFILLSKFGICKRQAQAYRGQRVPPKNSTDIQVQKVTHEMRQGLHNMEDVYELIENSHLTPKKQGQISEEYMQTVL
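cAMP rise detected as CNG-channel membrane depolarization by fluorescent dye (emission 590 nm), 30 min after compound, following 60 min dye loading containing 100 uM RO 20-1724 at room temperature. Cells: TSHR/CNG HEK 293, with parental CNG HEK 293 as control.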
A647 fluor: compound fluoresces in the A647 spectral region. Compound fluorescence, A647 channel (570/671 nm), Tris buffer. max dye-equivalent concentration, M. 59,000 tested, under 10 active; active means above 1 µM dye equivalent; inconclusive means 0.1 to 1 µM; inactive means 0.1 µM or less;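 further: values scaled relative to a standard on each plate; highest value over a series up to 38 µM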
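Each compound's intrinsic fluorescence at 570 nm excitation and 671 nm emission is measured across its concentration series in 100 mM Tris, pH 8.0, after 15 min at room temperature, and reported relative to an A647 curve.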
A488 fluor: A488 region autofluorescence | max dye equivalency, M | compound autofluorescence, A488 spectral region, dye equivalency; hits give high values | AID 591 | 59,000 tested, 0.1% active; active = above 10 nM dye equivalent; inconclusive = 1 to 10 nM; inactive = 1 nM or less; about half of its hits are not listed in these tables;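 further: highest value over a series up to 38 µM; compound alone in buffer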
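Compounds pin-transferred into 100 mM Tris buffer, pH 8.0, incubated 15 min at room temperature, then imaged with 480 nm excitation/540 nm emission filters. Fluorescence converted to Alexa 488 dye-equivalent concentration via an on-plate six-point A488 standard curve.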
* = called active by the depositor; i = inactive; u = inconclusive; x = no result given; & = joins results of further samples; [ ] = dose if it differs, or a comment.

Under each structure – Resorufin fluor | A488 fluor | AID923 | A647 fluor | TSHR ag
COc1ccc2[nH]c(C)c(CN3CCCC(C)C3)c(=O)c2c1 (stereo not drawn)
 : i | i | -0.9% | 1.6e-09 | 12.9%
CCOc1ccc(C(=O)NCCn2cc(SCC(=O)Nc3cc(C)on3)c3ccccc32)cc1
 : i | i | 0.6% | 5.5e-09 | 2.0%
N[C@@H](Cc1cc(CP(=O)(O)O)cc(-c2ccccc2Cl)c1)C(=O)O
 : x | x | -1.4% | x | -2.9%
CC(C)CNC(=O)C1CCCN(S(=O)(=O)c2ccc(-n3cnnn3)cc2)C1 (stereo not drawn)
 : i | i | -1.5% | 4.9e-09 | -0.5%
CCC(C)N1C(=O)CCC1C(=O)NCc1ccc2c(c1)OCO2 (stereo not drawn)
 : x | x | 1.0% | x | 6.0%
CCOc1ccc(C(=O)Nc2ccc3c(c2)OCO3)cc1OCC
 : i | i | 0.8% | 3.13e-08 | -0.5%
COc1cccc(-c2cc(C(=O)N3CC4(C)CC3CC(C)(C)C4)no2)c1 (stereo not drawn)
 : i | i | 1.3% | 1.3e-09 | u
OB(O)c1cc2ccccc2s1
 : x | x | -1.3% | x | 5.3%
O=C1Cc2ccccc2C(c2ccccc2)N1 (stereo not drawn)
 : x | x | -0.4% | x | 7.6%
C[C@H]1CN(S(=O)(=O)c2cccc3cnccc23)CCN1
 : i | i | -1.4% | 5.2e-09 | 2.9%
C=CCn1c(COc2cccc3ccc(C)nc23)nnc1SCC(N)=O
 : i | i | -0.2% | 1.85e-08 | x
CCOC(=O)CSc1nc(NC#N)nc(N(CC)CC)n1
 : i | i | x | 8.93e-08 | x
COc1ccc2cc3cc(C(=O)Nc4ccc5c(c4)OCO5)oc3nc2c1
 : i | i | 2.4% | 1e-09 | 16.8%
O=C(CSc1nnnn1-c1ccccc1)Nc1ccc(Cl)cn1
 : i | i | -0.2% | 1.72e-08 | 8.7%
O=C(Cn1cnc2c(oc3ccccc32)c1=O)N1CCCc2ccccc21
 : i | i | 0.7% | 1e-09 | 1.7%
CCOC(=O)c1sc(SCC(=O)Nc2ccc(N(C)C)cc2)nc1N
 : i | i | 0.1% | 1.55e-08 | 3.3%
COc1ncc2nc(-c3ccc(F)cc3)c(=O)n(C)c2n1
 : i | i | 5.2% | 2.7e-09 | 0.2%
c1cc(-c2noc(CCC3CCCC3)n2)ccn1
 : i | i | -0.1% | 2.7e-09 | u
CC(C)Cn1c(N)c(C(=O)COC(=O)C2=COCCO2)c(=O)n(C)c1=O
 : i | i | -0.8% | 1.42e-08 | 0.8%
Cc1nn(C)c(C)c1S(=O)(=O)N(CC(=O)Nc1ccc2c(c1)OCO2)c1ccc(C(C)C)cc1
 : x | x | -4.8% | x | 8.7%
CNc1ncnc2ccc(-c3ccccc3CN(C)C)cc12
 : i | i | 2.6% | 2.81e-08 | 11.1%
COc1ccc(-c2csc(N3CCC(C(N)=O)(N4CCCCC4)CC3)n2)cc1
 : i | i | 0.6% | 1e-09 | 19.2%
CC(=O)N[C@@H](CC(=O)O)C(=O)N[C@@H](CCC(=O)O)C(=O)O
 : i | i | -0.4% | 1.3e-09 | -3.1%
CCOC(=O)C1CCN(C(=O)COc2ccc(N(C)S(=O)(=O)c3cccs3)cc2)CC1
 : i | i | -1.9% | 9e-09 | 15.3%
COC(=O)c1sccc1NC(=O)c1ccco1
 : i | i | 2.4% | 1.53e-08 | -10.4%
Cn1c(=O)c(=O)n(C)c2cc(S(=O)(=O)Nc3ccc4c(c3)OCCO4)ccc21
 : i | i | 1.4% | 1e-09 | x
COCCNC(=O)C(C)OC(=O)c1nsc(Cl)c1Cl (stereo not drawn)
 : i | i | -3.1% | 7.2e-09 | -5.4%
CCOC(=O)C1CCN(C/C=C/c2ccccc2OC)CC1
 : i | i | -1.3% | 2.31e-08 | x
c1ccc(SCCc2ccncc2)cc1
 : i | i | 6.3%[11.5 µM] | 1e-09 | 3.1%[11.4 µM]
Cc1ccc(S(=O)(=O)N2CCC(C(=O)N[C@@H](C)C(=O)NCc3ccccc3)CC2)cc1
 : i | i | 0.0% | 2.76e-08 | 2.4%
CCCCn1ccnc1C(=O)c1ccc(S(=O)(=O)N(CCOC)CCOC)cc1
 : i | i | 1.1% | 4.5e-09 | 0.6%
CCC(c1nnnn1Cc1ccco1)N(CCN1CCOCC1)Cc1cc2cc(C)ccc2[nH]c1=O (stereo not drawn)
 : i | i | 4.4% | 1.6e-09 | u
COc1ccc(OC)c(NC(=O)C2CCN(c3ncccn3)CC2)c1
 : i | i | 0.4% | 1e-09 | u
COc1ccc(C(O)C(CN2CCOCC2)c2ccccc2)cc1F (stereo not drawn)
 : i | i | 0.1% | 5.2e-09 | 3.3%
CC(C)NC(=O)N1CC[C@@]2(CCCN(C(=O)c3cccn3C)C2)C1
 : i | i | 4.0% | 3.1e-09 | 0.4%
COc1ccc(C(=O)Nc2cccc(C(C)=O)c2)cc1S(=O)(=O)N1CCOCC1
 : x | x | 0.4% | x | 4.0%[11.4 µM]
CCn1c(SCC(=O)Nc2ccc3c(c2)OCO3)nc2c(c1=O)SC(C)C2 (stereo not drawn)
 : x | x | -0.7% | x | 12.4%
CCOC(=O)N/N=C1/C[C@@H](O)[C@@H](O)[C@@H]2[C@@H]3C(=O)N(C[C@@H]4CCCO4)C(=O)[C@H]3CC[C@@H]12
 : x | x | 13.8%[11.5 µM] | x | -0.1%[11.4 µM]
Clc1ccc(Cn2c(CN3CCCC3)nc3ccccc32)cc1
 : i | i | -1.1%[25.7 µM] | 1.6e-08&2.85e-08&2.8e-09 | u
O=C(N1CCOCC1)N1CCN(c2ccccn2)CC1
 : i | i | -2.1% | 1.77e-08 | -3.4%
CCc1c(C)n([O-])c2c([n+]1=O)CCC2
 : x | x | -0.5% | x | 1.1%
COc1ccc(Cl)cc1N1C(=O)C2CCCN2C1c1sccc1C (stereo not drawn)
 : i | i | 0.0% | 1e-09 | 8.4%
c1ccc(CNc2cc(-c3ccoc3)ncn2)cc1
 : i | i | 4.2% | 1.07e-08 | 1.8%
CCCn1c(NC(=O)c2ccc(C)cc2)nc2ccccc21
 : i | i | 0.4% | 1e-09 | u
O=C(C(c1ccccc1)c1ccccc1)N(Cc1ccco1)C1CCS(=O)(=O)C1 (stereo not drawn)
 : i | i | -0.5% | 1e-09 | x
CN(C)c1ccc(-c2ccc3ncnc(N(C)Cc4ccco4)c3c2)cc1
 : i | i | 10.8% | 1e-09 | u
CCNC(=O)c1cc2c(=O)n3cccc(C)c3nc2n1C
 : i | i | 4.4% | 4.3e-09 | 6.6%
Cc1ccc(CC23CN4CCN(CC(C4)C2O)C3)c(C)c1 (stereo not drawn)
 : i | i | -3.2% | 2.8e-09 | 3.7%
O=C(Nc1ccc(N2CCN(c3ccc(O)cc3)CC2)cc1)Oc1ccccc1
 : i | i | -0.6% | 2.4e-09 | -1.9%
COC(=O)[C@](C)(N)Cc1ccc(O)cc1
 : i | i | -0.6% | 1.83e-08 | u
COc1ccccc1CN1CCC2(CC1)CCN(C(=O)c1cccn1C)CC2
 : i | i | 4.7% | 2.2e-09 | 4.0%
CCc1nnc(NC(=O)c2cccc(C(=O)Nc3nnc(CC)s3)n2)s1
 : i | i | 0.0% | 3e-09 | x
CCC(C)(C)n1nnnc1C(c1ccc2ncccc2c1)N1CCN(c2nc3ccccc3s2)CC1 (stereo not drawn)
 : i | i | -0.1% | 2.27e-08 | u
Cc1cc(C)n(-c2ncnc3sc4c(c23)CCCC4)n1
 : i | i | 2.2% | 8.3e-09 | u
O=P(O)(CCc1ccncc1)CN1CCCCC1
 : x | x | 3.7% | x | -7.8%
O=C(Nc1ccc(Cl)c(C(F)(F)F)c1)C1CCCN(S(=O)(=O)c2cnc[nH]2)C1 (stereo not drawn)
 : i | i | -0.5% | 2.59e-08 | 2.1%[11.4 µM]
COc1cccc(N(CC(=O)Nc2cccc(F)c2)S(C)(=O)=O)c1
 : x | x | 1.8% | x | 7.0%
O=C(Nc1ccncc1)C1(c2ccccc2)CCCC1
 : i | i | 0.6% | 2.9e-09 | 4.4%
CCOC(=O)N1CCN(C(=O)C2CC(=O)N(c3ccc(OC)cc3)C2c2ccc(OC)cc2)CC1 (stereo not drawn)
 : i | i | -1.6% | 1.86e-08 | -0.5%[11.4 µM]
Cc1cc(Nc2ccc(Br)cc2F)n2ncnc2n1
 : x | x | -3.4% | x | 6.9%

Taken from above:
AID923, O=C(N1CCOCC1)N1CCN(c2ccccn2)CC1 stands at -2.1%
TSHR ag, COc1ccc(Cl)cc1N1C(=O)C2CCCN2C1c1sccc1C (stereo not drawn) stands at 8.4%

The list continues:
Under each structure – Resorufin fluor | A488 fluor | AID923 | A647 fluor | TSHR ag
COc1cc(C)nc(N2CCCC(C(=O)Nc3cccc(Cl)c3C)C2)n1 (stereo not drawn)
 : i | i | 0.3% | 3.94e-08 | 18.7%
O=c1c2ccccc2nc(-c2ccco2)n1/N=C/c1ccco1
 : i | i | 0.8% | 2.36e-08 | 26.4%
COc1ccc2oc(-c3ccccc3)c(C(=O)N3CCOCC3)c2c1
 : x | x | 0.5% | x | 6.0%
O=C(C1CCC(Cn2c(=O)[nH]c3ccccc3c2=O)CC1)N1CCN(c2ccccc2)CC1 (stereo not drawn)
 : x | x | 0.6% | x | 1.4%
C/C(CCC(=O)OC[C@@H]1O[C@H](C#Cc2ccccc2)C=C[C@@H]1Oc1ccc(C)cc1)=N/O[C@@H](C)c1cn([C@H](CO)Cc2ccccc2)nn1
 : x | x | -0.5%&2.2%[11.5 µM] | x | 0.7%&8.2%[11.4 µM]
CCOC(=O)C1CCCN(C(=O)CN2CCN(Cc3ccc(Cl)cc3)C2=O)C1 (stereo not drawn)
 : i | i | 0.0% | 6.7e-09 | 9.1%
COCCn1cc(C(=O)NCc2cccs2)c2c3ccccc3n(C)c2c1=O
 : i | i | -0.1% | 2.2e-09 | 6.6%
CN(C)c1ccc(C(=O)OCC(=O)NC2CCCCC2)cc1
 : i | i | -2.1% | 9.6e-09 | 10.6%
O=S(=O)(c1ccc(-n2cnnn2)cc1)N(C1CCCCC1)C1CCCCC1
 : i | i | 0.0% | 1.85e-08 | 16.6%
COc1ccc2nc(NS(=O)(=O)c3ccc(NC(C)=O)cc3)sc2c1
 : i | i | -1.0% | 1.4e-09 | -1.6%
CC1(N2CCOCC2)CC2(O)C(=[N+]1[O-])CCc1c2no[n+]1[O-] (stereo not drawn)
 : x | x | -0.7% | x | 11.0%
COc1ccc(-c2nnc(SCC(=O)Nc3ccccc3)n2C)cc1
 : i | i | 0.1% | 1.34e-08 | -1.9%
Cc1ccc(CNC(=O)C2CCC(=O)N2C2CCCCC2)cc1 (stereo not drawn)
 : i | i | 1.4% | 5.1e-09 | -2.9%
Cn1c(C(=O)N2CCN(Cc3ccc4c(c3)OCO4)CC2)cc2sccc21
 : i | i | -0.1% | 1.94e-08 | 14.6%
COc1ccc(S(=O)(=O)NCCC(=O)NC(C)c2ccccc2)cc1 (stereo not drawn)
 : i | i | -0.3% | 1e-09 | 0.3%
O=C(Cc1ccccc1)NC(NCCCN1CCOCC1)(C(F)(F)F)C(F)(F)F
 : i | i | -0.3% | 4.2e-08 | 19.7%
O=C(NC1CCc2ccccc21)C1CCN(S(=O)(=O)c2ccc(-n3cnnn3)cc2)CC1 (stereo not drawn)
 : i | i | 2.4% | 1.22e-08 | -4.3%
O=c1c2cnn(-c3ccc(F)cc3)c2ncn1Cc1cccnc1
 : i | i | -0.1% | 3e-09 | 13.2%
CCCC(=O)Nc1ccc(OCC(=O)OC)cc1
 : i | i | -3.8% | 1.27e-08 | 0.7%
On1onc2c3cc(-c4ccccc4)nc3ccc21
 : i | i | -2.6% | 2.1e-09 | -38.8%[inhibitor]
COc1ccc(C(=O)N2CCC[C@@]3(CCN(CC(C)C)C3)C2)cc1
 : i | i | 0.7% | 5.8e-09 | u
O=C(Cn1cc2c(n1)CCCC2)NCc1cccs1
 : x | x | -0.6% | x | 4.3%

Compound activity: PubChem, National Center for Advancing Translational Sciences (NCATS)

Only part of the results is shown. The share of hits here may be higher or lower than overall.
